HIV Env fusion = blocks HIV Env-driven cell-cell fusion; AID 651610; hit rate 1.1% among 360,000; inhibition, % at 12.3 µM; HeLa-JRFL Env/CEM21 cell fusion, luciferase;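 active = mean replicate inhibition score of at least 50 and every replicate individually at or above 50; inconclusive = only one of the two criteria met; inactive = mean below 50 and not all replicates reaching 50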;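 note: 0% = plate neutral controls and 100% = maraviroc near 300 nM; one replicate is shown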
UUG fidelity = modulators of start codon recognition fidelity in yeast | activity score, % at 18.7 µM | hit rate 0.13% among 350,000 | S. cerevisiae UUG-firefly luciferase reporter, luminescence/redox ratio;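 active = replicate mean at a twofold rise or more, about +100% in these data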;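 note: firefly luciferase made from a UUG start codon reports start codon fidelity; reporter light over untreated wells divided by growth signal over untreated wells; some hits fall short of that in this replicate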
An asterisk follows results filed as active; u = inconclusive; [ ] = dose if it differs, or a comment. A portion of the library; count on the stated rates, not on these rows.

SMILES | HIV Env fusion | UUG fidelity
C[C@H](CO)N1C[C@H](C)[C@H](CN(C)S(=O)(=O)c2cn(C)cn2)Oc2cc(C3=CCCC3)ccc2S1(=O)=O | -7.2[16.7 µM] | -13.0
CC(C)NC(=O)N(C)C[C@H]1Oc2ncc(C#Cc3ccc(F)cc3)cc2C(=O)N([C@@H](C)CO)C[C@H]1C | 30.3[16.7 µM] | -0.8
CC(C)NC(=O)N(C)C[C@H]1Oc2ncc(C3=CCCCC3)cc2C(=O)N([C@@H](C)CO)C[C@@H]1C | 3.7[16.7 µM] | -0.2
C[C@H](CO)N1C[C@H](C)[C@@H](CN(C)C(=O)CN(C)C)Oc2ncc(/C=C/c3ccccc3)cc2C1=O | 28.1[16.7 µM] | 7.3
CC(C)NC(=O)N(C)C[C@H]1OCCCC[C@H](C)Oc2ccc(NC(=O)Nc3ccc(F)cc3)cc2C(=O)N([C@@H](C)CO)C[C@H]1C | 11.7[16.7 µM] | 40.2
Cc1ccc(S(=O)(=O)Nc2ccc3c(c2)C(=O)N([C@@H](C)CO)C[C@@H](C)[C@H](CN(C)S(=O)(=O)c2ccccc2)O3)cc1 | 8.8[16.7 µM] | -10.2
O=S(=O)(N[C@H]1CC[C@@H](CCn2cc(-c3ccccn3)nn2)O[C@H]1CO)c1cccc(Cl)c1 | 3.1[16.7 µM] | -8.5
C[C@@H]1CN([C@H](C)CO)C(=O)c2cc(C3=CCCC3)cnc2O[C@@H]1CN(C)C(=O)Nc1ccc(C(F)(F)F)cc1 | 5.9[16.7 µM] | -5.8
COc1ccc(S(=O)(=O)Nc2ccc3c(c2)C(=O)N([C@H](C)CO)C[C@H](C)[C@@H](CN(C)S(=O)(=O)c2ccc(Cl)cc2)OCCCC[C@H](C)O3)cc1 | 6.6[16.7 µM] | 6.2
COc1ccc(CN(C)C[C@@H]2OCCCC[C@@H](C)Oc3ccc(NC(=O)CCC(F)(F)F)cc3C(=O)N([C@H](C)CO)C[C@H]2C)cc1 | -2.6[16.7 µM] | 9.5
CN(C)C(=O)C[C@H]1CC[C@@H]2[C@@H](COc3ccc(NC(=O)C4CCOCC4)cc3C(=O)N2C)O1 | -23.6[16.7 µM] | 1.5
CCCNC(=O)Nc1ccc2c(c1)OC[C@H](C)N(CCC)C[C@@H](C)[C@H](OC)CN(C)C2=O | 1.8[16.7 µM] | -19.9
C[C@@H]1CCCCO[C@@H](CN(C)C(=O)c2ccccc2)[C@@H](C)CN([C@H](C)CO)C(=O)c2cc(NC(=O)C3CCCCC3)ccc2O1 | -29.4[16.7 µM] | 9.7
O=C(C[C@@H]1CC[C@H](NS(=O)(=O)c2ccc(F)cc2)[C@H](CO)O1)N1CCc2ccccc2C1 | 5.4[16.7 µM] | -6.6
C[C@@H]1CN([C@@H](C)CO)C(=O)c2cccc(NC(=O)C3CC3)c2O[C@H]1CN(C)Cc1ccc(Oc2ccccc2)cc1 | u | 4.2
COc1ccc(CN(C)C[C@@H]2OCCCC[C@H](C)Oc3ccc(NS(=O)(=O)c4ccc(F)cc4)cc3C(=O)N([C@H](C)CO)C[C@@H]2C)cc1 | -14.9[16.7 µM] | 21.0
COc1ccc(C#Cc2cnc3c(c2)C(=O)N([C@@H](C)CO)C[C@H](C)[C@@H](CN(C)C(=O)CN(C)C)O3)cc1 | 4.1[16.7 µM] | -5.4
CCCN(C)C[C@H]1Oc2cc(-c3ccccc3OC)ccc2S(=O)(=O)N([C@@H](C)CO)C[C@H]1C | -14.3[16.7 µM] | 1.6
CCCN(C)C[C@H]1Oc2ncc(-c3cccc(C#N)c3)cc2C(=O)N([C@H](C)CO)C[C@@H]1C | 0.3[16.7 µM] | -6.3
O=C(Cc1ccccn1)NCC[C@H]1CC[C@@H](NS(=O)(=O)c2ccccc2)[C@H](CO)O1 | -1.4[16.7 µM] | 10.0
COc1ccc(S(=O)(=O)Nc2ccc3c(c2)C(=O)N([C@H](C)CO)C[C@@H](C)[C@H](CN(C)Cc2ccc(C(=O)O)cc2)O3)cc1 | 5.1[16.7 µM] | -12.6
CN1CCN(C(=O)C[C@@H]2CC[C@H]3[C@H](COc4ccc(NC(=O)C5CC5)cc4C(=O)N3C)O2)CC1 | -23.4[16.7 µM] | -7.2
C[C@@H]1CN([C@H](C)CO)C(=O)c2cc(NS(=O)(=O)c3cn(C)cn3)ccc2O[C@@H](C)CCCCO[C@@H]1CN(C)C(=O)CCC(F)(F)F | 10.5[16.7 µM] | -0.3
C[C@@H]1CN([C@@H](C)CO)C(=O)c2cc(NC(=O)c3ccncc3)ccc2O[C@@H](C)CCCCO[C@@H]1CN(C)C(=O)CCC(F)(F)F | -0.3[16.7 µM] | 14.5
Cc1noc(C)c1S(=O)(=O)Nc1ccc2c(c1)C(=O)N([C@@H](C)CO)C[C@H](C)[C@@H](CN(C)S(=O)(=O)c1ccc(F)cc1)OCCCC[C@H](C)O2 | 51.4[16.7 µM] | 12.0
C[C@@H]1CN([C@H](C)CO)C(=O)CCCn2cc(nn2)CO[C@H]1CN(C)Cc1cccnc1 | -4.0[16.7 µM] | -19.5
O=C(Cc1ccncc1)NCC[C@@H]1CC[C@@H](NC(=O)C2CCCC2)[C@H](CO)O1 | -5.0[16.7 µM] | -5.1
CCCc1cn(CC[C@H]2CC[C@@H](NC(=O)Cc3cccnc3)[C@H](CO)O2)nn1 | -23.7[16.7 µM] | -5.7
C[C@@H]1CCCCO[C@H](CN(C)S(=O)(=O)c2cn(C)cn2)[C@H](C)CN([C@@H](C)CO)C(=O)c2cc(NC(=O)NC3CCCCC3)ccc2O1 | -4.8[16.7 µM] | 27.7
O=C(N[C@@H]1CC[C@@H](CCn2cc(-c3ccccc3)nn2)O[C@@H]1CO)c1ccccc1F | 16.3[16.7 µM] | 1.9
O=C(C[C@H]1C[C@H]2c3cc(NC(=O)C4CCC4)ccc3O[C@H]2[C@H](CO)O1)NCC1CC1 | 9.6[16.7 µM] | 0.5
C[C@H](CO)N1C[C@H](C)[C@@H](CN(C)C(=O)Nc2ccc(C(F)(F)F)cc2)OCCCC[C@H](C)Oc2ccc(NS(=O)(=O)c3ccc(F)cc3)cc2C1=O | 69.8*[16.7 µM] | -8.1
C[C@@H]1CN([C@H](C)CO)C(=O)Cc2cc(NC(=O)C3CCCCC3)ccc2O[C@H]1CN(C)CC1CCCCC1 | -8.6[16.7 µM] | -10.7
Cc1noc(C)c1NC(=O)Nc1ccc2c(c1)C(=O)N([C@@H](C)CO)C[C@H](C)[C@H](CN(C)C(=O)Nc1ccccc1)O2 | -1.8[16.7 µM] | -12.3
C/C=C/c1cnc2c(c1)C(=O)N([C@@H](C)CO)C[C@@H](C)[C@H](CN(C)C(=O)Cc1cccnc1)O2 | 0.4[16.7 µM] | -9.8
C[C@@H]1CCCCO[C@H](CN(C)C(=O)Cc2ccccc2)[C@@H](C)CN([C@H](C)CO)C(=O)c2cc(NS(=O)(=O)c3ccc(Cl)cc3)ccc2O1 | u | -16.7
CCCC#Cc1cnc2c(c1)C(=O)N([C@@H](C)CO)C[C@H](C)[C@@H](CN(C)C(=O)Nc1c(C)noc1C)O2 | -4.1[16.7 µM] | 6.3
N#C[C@H]1[C@@H](c2ccc(C3=CCCCC3)cc2)[C@@H](CO)N1C(=O)c1ccccn1 | 10.6[16.7 µM] | 3.0
CNC[C@H]1Oc2ccc(NC(=O)Nc3ccc(OC)cc3)cc2CC(=O)N([C@@H](C)CO)C[C@@H]1C | -0.9[16.7 µM] | 26.1
C[C@H]1CN([C@@H](C)CO)C(=O)Cc2cc(NC(=O)Nc3ccc(C(F)(F)F)cc3)ccc2O[C@H]1CN(C)Cc1ccc2c(c1)OCO2 | 13.3[16.7 µM] | 3.2
C[C@@H]1CN([C@@H](C)CO)C(=O)c2cccc(NS(=O)(=O)c3ccc(Cl)cc3)c2O[C@@H]1CN(C)C(=O)Nc1ccc2c(c1)OCO2 | -50.5[16.7 µM] | 12.1
Cc1noc(C)c1NC(=O)Nc1ccc2c(c1)C(=O)N([C@H](C)CO)C[C@H](C)[C@H](CN(C)C(=O)c1ccccc1)OCCCC[C@H](C)O2 | -9.2[16.7 µM] | 6.5
C[C@@H]1CN([C@H](C)CO)C(=O)Cc2cc(NC(=O)NC3CCCCC3)ccc2O[C@H]1CN(C)Cc1ccc(-c2ccccc2)cc1 | 32.3[16.7 µM] | -6.8
COCC(=O)Nc1ccc2c(c1)C(=O)N(C)[C@H]1CC[C@@H](CC(=O)NCCc3ccccc3)O[C@@H]1CO2 | -16.8[16.7 µM] | 5.8
COc1ccc(CN(C)C[C@H]2OCCCC[C@H](C)Oc3ccc(NC(=O)Nc4ccccc4)cc3C(=O)N([C@H](C)CO)C[C@@H]2C)cc1 | -5.0[16.7 µM] | 27.5
CO[C@H]1CN(C)C(=O)c2cc(NC(=O)Nc3ccccc3)ccc2OC[C@@H](C)N(C(C)=O)C[C@H]1C | -3.2[16.7 µM] | 20.0
C[C@@H]1CCCCO[C@H](CN(C)C(=O)c2ccncc2)[C@H](C)CN([C@H](C)CO)C(=O)c2cc(NS(=O)(=O)c3ccccc3)ccc2O1 | -24.6[16.7 µM] | 2.7
CCC(=O)N[C@@H]1CC[C@@H](CC(=O)NCc2ccc(OC)cc2)O[C@@H]1CO | 24.4[16.7 µM] | -3.3
C[C@@H]1CN([C@H](C)CO)C(=O)c2cc(NC(=O)c3ccncc3)ccc2O[C@@H]1CN(C)S(=O)(=O)c1ccc(F)cc1 | 5.3[16.7 µM] | -4.5
C[C@@H]1CN([C@H](C)CO)C(=O)Cc2cc(NC(=O)CCC(F)(F)F)ccc2O[C@@H]1CN(C)C(=O)Nc1ccc2c(c1)OCO2 | 2.0[16.7 µM] | 1.0
(continued)
SMILES | HIV Env fusion | UUG fidelity
C[C@H](CO)N1C[C@H](C)[C@@H](CN(C)C(=O)Nc2ccccc2)Oc2c(NC(=O)Nc3ccc(F)cc3)cccc2C1=O | 11.9[16.7 µM] | 11.1
C[C@H](CO)N1C[C@H](C)[C@@H](CN(C)S(C)(=O)=O)Oc2ccc(NC(=O)c3ccncc3)cc2CC1=O | 2.8[16.7 µM] | 7.1
CCCN(C)C[C@@H]1Oc2cc(C#Cc3ccccc3)ccc2S(=O)(=O)N([C@@H](C)CO)C[C@H]1C | 28.3[16.7 µM] | -1.2
COc1ccc(S(=O)(=O)Nc2ccc3c(c2)C(=O)N([C@@H](C)CO)C[C@H](C)[C@H](CN(C)C(=O)Nc2c(C)noc2C)OCCCC[C@@H](C)O3)cc1 | 10.7[16.7 µM] | 19.5
CCCC#Cc1cnc2c(c1)C(=O)N([C@H](C)CO)C[C@H](C)[C@H](CN(C)Cc1ccc(C(=O)O)cc1)O2 | -11.8[16.7 µM] | 14.3
C[C@H](CO)N1C[C@H](C)[C@@H](CN(C)S(=O)(=O)c2ccc(Cl)cc2)OCc2cn(nn2)CCCC1=O | 4.6[16.7 µM] | 2.5
CCC(=O)Nc1ccc2c(c1)C(=O)N(C)[C@H]1CC[C@@H](CC(=O)NCCCN(C)C)O[C@@H]1CO2 | -4.8[16.7 µM] | -14.7
C[C@H]1CN([C@@H](C)CO)C(=O)Cc2cc(NC(=O)CCCN(C)C)ccc2O[C@@H]1CN(C)S(C)(=O)=O | -12.3[16.7 µM] | -1.8
CC(C)C#Cc1ccc2c(c1)O[C@@H](CN(C)C(=O)c1cccc(F)c1)[C@@H](C)CN([C@H](C)CO)S2(=O)=O | 7.4[16.7 µM] | 4.4
CC(C)CC#Cc1ccc2c(c1)O[C@@H](CN(C)C(=O)c1ccccn1)[C@@H](C)CN([C@H](C)CO)S2(=O)=O | 0.7[16.7 µM] | 4.1
C[C@H]1CN([C@@H](C)CO)C(=O)c2cc(NS(=O)(=O)c3ccc(F)cc3)ccc2O[C@H]1CN(C)S(=O)(=O)c1ccc(Cl)cc1 | 1.7[16.7 µM] | 5.1
C[C@H](CO)N1C[C@H](C)[C@H](CN(C)S(=O)(=O)c2ccc(F)cc2)Oc2ccc(NC(=O)Nc3ccccc3)cc2CC1=O | 55.2*[16.7 µM] | 8.6
C[C@H]1CN([C@@H](C)CO)C(=O)c2cc(C#CC3CCCCC3)cnc2O[C@H]1CN(C)S(=O)(=O)c1ccccc1 | 6.1[16.7 µM] | -3.5
COc1ccc(NC(=O)N(C)C[C@@H]2Oc3ccc(NC(=O)Nc4ccc(F)cc4)cc3C(=O)N([C@H](C)CO)C[C@@H]2C)cc1 | -58.7[16.7 µM] | 9.5
Cc1noc(C)c1S(=O)(=O)Nc1cccc2c1O[C@@H](CN(C)S(=O)(=O)c1cccs1)[C@@H](C)CN([C@H](C)CO)C2=O | 42.9[16.7 µM] | -1.3
C[C@@H]1CCCCO[C@H](CN(C)S(=O)(=O)c2cn(C)cn2)[C@@H](C)CN([C@H](C)CO)C(=O)c2cc(NC(=O)Nc3cccc4ccccc34)ccc2O1 | 3.4[16.7 µM] | -7.1
CC(=O)N(C)C[C@H]1Oc2cc(-c3ccc(F)cc3)ccc2S(=O)(=O)N([C@H](C)CO)C[C@H]1C | 13.8[16.7 µM] | 6.0
Cc1ccc(S(=O)(=O)N[C@@H]2CC[C@H](CCNC(=O)C3CCC3)O[C@H]2CO)cc1 | 1.6[16.7 µM] | -3.4

Another view of some results above:
C[C@H](CO)N1C[C@H](C)[C@H](CN(C)S(=O)(=O)c2ccc(F)cc2)Oc2ccc(NC(=O)Nc3ccccc3)cc2CC1=O
- HIV Env fusion: 55.2*[16.7 µM]
- UUG fidelity: 8.6
C[C@H]1CN([C@@H](C)CO)C(=O)c2cc(C#CC3CCCCC3)cnc2O[C@H]1CN(C)S(=O)(=O)c1ccccc1
- HIV Env fusion: 6.1[16.7 µM]
- UUG fidelity: -3.5
COc1ccc(NC(=O)N(C)C[C@@H]2Oc3ccc(NC(=O)Nc4ccc(F)cc4)cc3C(=O)N([C@H](C)CO)C[C@@H]2C)cc1
- HIV Env fusion: -58.7[16.7 µM]
- UUG fidelity: 9.5
Cc1noc(C)c1S(=O)(=O)Nc1cccc2c1O[C@@H](CN(C)S(=O)(=O)c1cccs1)[C@@H](C)CN([C@H](C)CO)C2=O
- HIV Env fusion: 42.9[16.7 µM]
- UUG fidelity: -1.3

Screens from PubChem BioAssay.
